# Source: PubChem BioAssay
# AF4-AF9 inh: blocks AF4 peptide binding to human AF9; AlphaScreen, biotin-AF4 peptide binding to FLAG-AF9; inhibition, % at 10 µM; hit rate 0.47% among 350,000;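 active means every replicate reaching a set inhibition limit, whatever the replicate mean, cut at about 25% in these data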;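 further: 0% = plate neutral control median and 100% = total signal loss; the record names both 10 and 1 µM as test concentration; the first replicate is given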
# Target sequence (P42568 whole entry, looked up): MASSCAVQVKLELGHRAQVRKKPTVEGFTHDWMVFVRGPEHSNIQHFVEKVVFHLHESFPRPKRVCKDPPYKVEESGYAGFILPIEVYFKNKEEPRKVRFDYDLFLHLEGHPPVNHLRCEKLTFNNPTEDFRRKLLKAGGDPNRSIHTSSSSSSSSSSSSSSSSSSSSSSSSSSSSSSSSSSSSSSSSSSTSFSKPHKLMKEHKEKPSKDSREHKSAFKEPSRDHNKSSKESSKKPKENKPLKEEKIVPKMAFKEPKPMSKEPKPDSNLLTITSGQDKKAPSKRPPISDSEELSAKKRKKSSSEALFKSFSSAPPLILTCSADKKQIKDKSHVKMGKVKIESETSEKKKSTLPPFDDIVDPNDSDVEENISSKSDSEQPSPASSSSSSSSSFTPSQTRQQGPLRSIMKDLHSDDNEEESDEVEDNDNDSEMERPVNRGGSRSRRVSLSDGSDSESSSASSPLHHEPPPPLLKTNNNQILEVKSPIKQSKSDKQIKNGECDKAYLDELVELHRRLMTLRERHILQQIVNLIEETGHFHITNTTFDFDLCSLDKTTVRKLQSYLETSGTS
# FGF22 binding: shifts melting point of recombinant human FGF22. Q9HCT0. recombinant FGF22 thermal shift, SYPRO orange fluorescence; percent of sucrose octasulfate shift, DMSO zero. AID 651658. hit rate 1.5% among 340,000. calls only at 9.99 µM;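 active means melting point raised past a set limit in the mean and every replicate; three in four hits are not shown here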
# rRNA inh HTS: selective bacterial rRNA inhibition in E. coli | E. coli WT GFP vs humanized-ribosome RFP mutants, fluorescence, 24 h; active compounds read low; DMSO median 0, no signal -100 | GFP signal change (wild-type ribosome), % (no concentration beside the values) | hit rate 1.6% among 350,000;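 active means significant combined selectivity score with lowered wild-type GFP, culture density cut under 30%, mutant RFP and density less affected; inactive means any of these conditions unmet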; further: one replicate is shown; some compounds called inactive have numbers as strong as hits
# rRNA inh HTS OD600: further read-out of rRNA inh HTS, marked with its call; OD600 change, %; measured here: OD600 growth;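 optical density of the mix in the first replicate; 0 = DMSO median and -100 = no signal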
# rRNA inh HTS RFP: also measured in rRNA inh HTS; calls as there; RFP signal change, %; measured here: RFP humanized mutant strains;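 first replicate; 0 = DMSO median and -100 = no signal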
# The depositor's hits bear a star; i = inactive; & = joins results of further samples.
smiles,AF4-AF9 inh,FGF22 binding,rRNA inh HTS,rRNA inh HTS OD600,rRNA inh HTS RFP
CN1OC[C@@H]2CN(S(=O)(=O)c3ccccc3)[C@H](c3cccc(Br)c3)C[C@@H]21,-5.5,i,-30,-29,-6.6
C[C@@H]1CN([C@H](C)CO)S(=O)(=O)c2ccc(C#CC3CC3)cc2O[C@H]1CN(C)Cc1cccc(F)c1,2.9,i,2,5,-4.7
CO[C@@H]1CN(C)C(=O)c2ccc(NC(=O)C3CC3)cc2OC[C@@H](C)N(C(=O)CN(C)C)C[C@H]1C,-1.7,i,1,1,0.5
C[C@@H]1CN([C@@H](C)CO)C(=O)Cc2cc(NC(=O)Cc3cn(C)c4ccccc34)ccc2O[C@@H]1CN(C)C,1.2,i,1,-5,2.0
COc1ccc(S(=O)(=O)N2CCN(Cc3ccccc3OC)CC2)cc1,1.9,i,-8,-10,7.4
O=C(C[C@@H]1C[C@@H]2c3cc(NC(=O)c4cccnc4)ccc3O[C@@H]2[C@H](CO)O1)NCc1ccc(Oc2ccccc2)cc1,-2.7,i,-2,3,-1.9
COCC#Cc1ccc([C@H]2[C@@H](CO)N3C(=O)CN(C(=O)c4ccncc4)C[C@@H]23)cc1,-2.2,i,2,10,-0.5
COc1ccc(NC(=O)c2cc(-c3cc(F)ccc3OC)n[nH]2)c(C)c1,0.1,i,-5,-14,0.6
Cc1ccc(S(=O)(=O)N(C)C[C@@H]2OCCCC[C@H](C)Oc3ccc(NC(=O)Nc4ccccc4)cc3C(=O)N([C@@H](C)CO)C[C@@H]2C)cc1,2.1,i,4,3,-3.0
C[C@@H]1CN([C@H](C)CO)C(=O)Cc2cc(NS(C)(=O)=O)ccc2O[C@H]1CN(C)C(=O)Nc1ccccc1,-2.6,i,-1,-3,1.0
CN(C[C@H]1N[C@@H](CO)[C@H]1c1ccc(-c2cccc(F)c2)cc1)C(=O)C1CCC1,3.0,i,-2,-4,3.9
CC(C)NC(=O)Nc1ccc2c(c1)C(=O)N(C)[C@@H]1CC[C@@H](CC(=O)Nc3ccccc3)O[C@@H]1CO2,1.0,i,0,1,-1.1
OC(c1ccc(Cl)cc1)c1ncc(-c2cccc(C(F)(F)F)c2)[nH]1 (centres undefined),13,i,-52,-78,-13
Cc1cc(C)n2c(Nc3c(C)cccc3C)c(CC(C)C)nc2n1,6.4,i,-11,-4,6.5
O=C(Nc1ccccc1F)N[C@@H]1CC[C@@H](CC(=O)N2CCCCC2)O[C@@H]1CO,-1.7,i,-2,4,-2.6

# Arranged by molecular weight (rising): part of the list above
smiles,AF4-AF9 inh,FGF22 binding,rRNA inh HTS,rRNA inh HTS OD600,rRNA inh HTS RFP
COc1ccc(S(=O)(=O)N2CCN(Cc3ccccc3OC)CC2)cc1,1.9,i,-8,-10,7.4
C[C@@H]1CN([C@H](C)CO)S(=O)(=O)c2ccc(C#CC3CC3)cc2O[C@H]1CN(C)Cc1cccc(F)c1,2.9,i,2,5,-4.7
C[C@@H]1CN([C@H](C)CO)C(=O)Cc2cc(NS(C)(=O)=O)ccc2O[C@H]1CN(C)C(=O)Nc1ccccc1,-2.6,i,-1,-3,1.0

# Gathered by group: the entries above with fluorine
smiles,AF4-AF9 inh,FGF22 binding,rRNA inh HTS,rRNA inh HTS OD600,rRNA inh HTS RFP
C[C@@H]1CN([C@H](C)CO)S(=O)(=O)c2ccc(C#CC3CC3)cc2O[C@H]1CN(C)Cc1cccc(F)c1,2.9,i,2,5,-4.7
COc1ccc(NC(=O)c2cc(-c3cc(F)ccc3OC)n[nH]2)c(C)c1,0.1,i,-5,-14,0.6
CN(C[C@H]1N[C@@H](CO)[C@H]1c1ccc(-c2cccc(F)c2)cc1)C(=O)C1CCC1,3.0,i,-2,-4,3.9
OC(c1ccc(Cl)cc1)c1ncc(-c2cccc(C(F)(F)F)c2)[nH]1 (centres undefined),13,i,-52,-78,-13
O=C(Nc1ccccc1F)N[C@@H]1CC[C@@H](CC(=O)N2CCCCC2)O[C@@H]1CO,-1.7,i,-2,4,-2.6

# Going on with the list.
smiles,AF4-AF9 inh,FGF22 binding,rRNA inh HTS,rRNA inh HTS OD600,rRNA inh HTS RFP
CCc1csc(N2[C@H](C#N)[C@@H](c3ccc(-c4ccc(F)cc4)cc3)[C@H]2CO)n1,0.5,i,-8,-30,-3.7
CC(C)C1C(=O)N(Cc2cn(CCC3OCCO3)nn2)CCS(=O)(=O)N1Cc1ccc(-c2ccccc2C(F)(F)F)cc1 (centres undefined),-0.5,i,7,-3,-7.2
C[C@@H]1CN([C@H](C)CO)S(=O)(=O)c2ccc(C#Cc3ccccc3)cc2O[C@H]1CN(C)C(=O)CN(C)C,12,i,-3,4,6.6
C[C@H]1CN([C@@H](C)CO)C(=O)c2cc(C#Cc3cccnc3)cnc2O[C@H]1CN(C)S(=O)(=O)c1ccccc1F,-5.7,i,-6,-6,-1.6
COc1cccc(S(=O)(=O)N[C@@H]2CC[C@@H](CC(=O)NC3Cc4ccccc4C3)O[C@@H]2CO)c1,-0.7,i,7,8,-0.8
O=C(C[C@H]1CC[C@H]2[C@@H](COC[C@H](O)CN2C(=O)Nc2ccc(F)cc2)O1)NCCCN1CCOCC1,-20,i,7,27,-1.9
COc1ccc(CN(C)C[C@H]2Oc3ccc(NC(=O)c4ccncc4)cc3CC(=O)N([C@@H](C)CO)C[C@H]2C)cc1,-1.3,i,-3,0,0.8
CCCN(C)C1CN(Cc2cn(Cc3ccccc3)nn2)S(=O)(=O)C1 (centres undefined),-6.0,i,5,16,0.6
C[C@H]1CN([C@@H](C)CO)C(=O)c2cc(NS(=O)(=O)c3cn(C)cn3)ccc2O[C@@H]1CN(C)C(=O)Nc1ccc(C(F)(F)F)cc1,-4.6,i,-7,-8,-2.9
CC(=O)N(C)C[C@H]1Oc2ncc(-c3cccnc3)cc2C(=O)N([C@H](C)CO)C[C@H]1C,-3.4,i,0,9,-0.1
CNC[C@@H]1OCCCC[C@@H](C)Oc2ccc(NC(=O)Nc3ccc(C(F)(F)F)cc3)cc2C(=O)N([C@@H](C)CO)C[C@H]1C,6.7,i,-51,-76,-8.9
C[C@H](CO)N1C[C@H](C)[C@@H](CN(C)C(=O)NC2CCCCC2)OCCCC[C@H](C)Oc2ccc(NC(=O)Nc3ccc4c(c3)OCO4)cc2C1=O,1.7,i,-1,4,-0.9
CNC[C@@H]1Oc2ccc(NC(=O)Nc3ccccc3)cc2CC(=O)N([C@H](C)CO)C[C@@H]1C,-3.5,i,2,10,-2.6
C[C@H]1CN([C@@H](C)CO)S(=O)(=O)c2ccc(C#CC3(O)CCCC3)cc2O[C@H]1CN(C)C(=O)Nc1ccc(F)cc1,0.8,i,0,4,-1.9
CO[C@@H]1CN(C)C(=O)c2cc(NC(C)=O)ccc2OC[C@H](C)N(C(=O)c2ccccc2F)C[C@H]1C,0.3,i,1,-2,-0.8
CC(C)NC(=O)Nc1ccc2c(c1)C(=O)N([C@H](C)CO)C[C@H](C)[C@@H](CN(C)Cc1ccc(C(F)(F)F)cc1)OCCCC[C@H](C)O2,0.7&2.9,i,-22&0,-37&-8,7.3&-1.5
C[C@H]1CN([C@@H](C)CO)C(=O)c2cc(NC(=O)Nc3ccccc3)ccc2O[C@H]1CN(C)Cc1ccc(C(=O)O)cc1,-2.2,i,6,16,-1.9

# An excerpt; the hit share may differ from the screen's.
